gsp antagonist = qHTS for Antagonists of gsp, the Etiologic Mutation Responsible for Fibrous Dysplasia/McCune-Albright Syndrome: qHTS. gsp-mutant cells, cAMP HTRF, 30 min; control for the full effect not named in the record. 0.4% of 340,000 active. Potency, µM (titrated, usually from 76.9 µM), without a hit: at the top dose activity change, negative = inhibition, most hits filed as inhibitors; active = falling curve of any shape with a large fitted effect; inconclusive = falling curve, mostly with a smaller effect; inactive = flat or rising curve; cell line not stated here;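 note: intracellular cAMP measured with PDE inhibitor Ro 20-1724 present during compound exposure; potency is the fitted concentration of half-maximal effect; % is set by controls: 0 for no effect and ±100 for the full control effect; nearly all actives have a fitted effect of over 65% in size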
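HTRF cAMP read-out (cAMP-d2 plus anti-cAMP antibody-K in lysis buffer, 30 min RT). Before lysis, cells are exposed to compounds with […] for 30 min at 37C in DPBS containing Ca/Mg, BSA and Tween 20.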
TRPML1 agonist = qHTS for Agonists of the Human Mucolipin Transient Receptor Potential 1 (TRPML1). Mucolipin-1 (Homo sapiens), Q9GZU1. TRPML1-expressing cells, Ca2+ dye fluorescence, FDSS; host cell line not named in the record; reference of the full effect not given here. activation, % (no concentration beside the values). 0.12% of 410,000 active. AID 624414, 2012; in the data active = activation above about 50%; inconclusive = about 30% to 50%; inactive = below about 30%; note: 0% is about no effect; the text of the record puts the active cut at 80%
Target sequence (Q9GZU1 whole entry, looked up): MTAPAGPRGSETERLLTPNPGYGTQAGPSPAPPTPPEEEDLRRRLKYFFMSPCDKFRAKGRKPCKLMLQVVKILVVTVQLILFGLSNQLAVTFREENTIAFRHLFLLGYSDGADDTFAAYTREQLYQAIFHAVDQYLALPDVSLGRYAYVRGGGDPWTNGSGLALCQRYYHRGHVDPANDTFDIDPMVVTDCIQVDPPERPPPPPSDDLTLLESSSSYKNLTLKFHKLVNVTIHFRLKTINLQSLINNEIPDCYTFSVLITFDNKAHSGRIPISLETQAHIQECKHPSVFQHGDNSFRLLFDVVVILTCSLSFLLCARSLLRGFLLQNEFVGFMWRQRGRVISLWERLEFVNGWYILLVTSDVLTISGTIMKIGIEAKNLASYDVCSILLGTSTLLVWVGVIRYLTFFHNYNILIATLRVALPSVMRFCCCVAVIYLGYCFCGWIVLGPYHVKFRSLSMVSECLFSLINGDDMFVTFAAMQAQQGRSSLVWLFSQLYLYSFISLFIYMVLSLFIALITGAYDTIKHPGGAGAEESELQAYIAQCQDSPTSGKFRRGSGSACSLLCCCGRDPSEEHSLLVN
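Calcium fluorescence on an FDSS kinetic reader gave the read-out. Tet-induced TRPML1-DL cells were plated overnight, dye-loaded (Ca8 with quencher, 45-90 min, room temperature, dark), then read 110 s after compound addition, and again 110 s after 4uM final 54-4 (EC80).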
ClpP mod = qHTS Assay for Activators of ClpP; 1.9% of 340,000 active; purified B. subtilis ClpP, FRET peptide cleavage, 20 min; AID 651965, 2013; Potency, µM (titrated, usually from 57.5 µM), for the others: top-dose activity change, negative = active; active = well fitted falling curve with a large enough effect; inconclusive = small, poorly fitted or top-dose-only effect; inactive = no such curve, though single readings can be large or run the other way; note: potency is the fitted concentration of half-maximal effect; the source files actives as falling curves though it sought activators and does not explain the sign; nearly all actives have a fitted effect of over 65% in size; many hits overshoot -100%
Target sequence (P80244 whole entry, looked up): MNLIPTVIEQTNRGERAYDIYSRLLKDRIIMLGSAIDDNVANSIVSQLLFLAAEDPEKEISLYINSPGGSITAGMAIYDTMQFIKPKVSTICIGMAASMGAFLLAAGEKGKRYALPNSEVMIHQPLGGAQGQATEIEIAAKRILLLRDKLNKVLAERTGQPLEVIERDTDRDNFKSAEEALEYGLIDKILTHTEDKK
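ClpP 10 microg/mL final, pH 8 Tris/KCl buffer with BSA, glycerol, Tween-20; compound pinned in; FRET-FV substrate; RT 20 min; Ex320/Em430; ΔFRET vs ADEP 5.8 microM, DMSO, no enzyme.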
gsp ag = qHTS for Agonist of gsp, the Etiologic Mutation Responsible for Fibrous Dysplasia/McCune-Albright Syndrome: qHTS; gsp mutant cells, cAMP HTRF, 30 min; control for the full effect not named in the record; Potency, µM (highest dose often 76.9 µM), for the others: at the highest dose activation (cAMP increase), most hits filed as activators; 0.13% of 340,000 active; AID 624287, 2012; active = well fitted activation curve with a large enough effect; inconclusive = small, poorly fitted or top-dose-only effect, or another doubt; inactive = no such curve, though single readings can be large or run the other way; cell line not stated here;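 note: phosphodiesterase inhibitor Ro 20-1724 added with compounds to block cAMP breakdown; potency is the fitted concentration of half-maximal effect; nearly all actives have a fitted effect of over 60% in size; about a fifth of the inactives were tested at one dose only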
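Cells stably selected in G418 were plated at 2000/well, grown 16-24 hr, then given compounds in DMSO with the PDE inhibitor […] (300 uM solution added) for 30 min at 37C; cAMP was read by HTRF.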
TRPML1 blocker = qHTS for Inhibitors of the Human Mucolipin Transient Receptor Potential 1 (TRPML1) | TRPML1-inducible cells, Ca2+ dye fluorescence, FDSS; stronger effect = lower value; inhibition of EC80 agonist-evoked calcium signal | activity change, negative = inhibition, % (test concentration not listed) | 0.02% of 390,000 active | AID 624415, 2012; in the data active means activity change below about -50%; inconclusive means about -30% to -50%; inactive means above about -30%;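 note: stimulus is agonist 54-4 at its EC80 concentration; % is set by controls: 0 for no effect and ±100 for the full control effect; compound concentration not given in the record; the text of the record puts the active cut at -80%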
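Calcium fluorescence in TRPML1-DL cells induced overnight with Tet: a 110 s read after compound pin addition, then a 110 s antagonist read after challenge with 54-4 at 4 uM final (EC80).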
Menin MLL FP FL = qHTS Assay for Inhibitors Targeting the Menin-MLL Interaction in MLL Related Leukemias: Competition With Fluorescein Labeled MLL-derived Peptide; 290,000 tested, under 10 active; Fluorescence polarization, fluorescein-MLL peptide displacement from menin; FP activity change, % at 61.4 µM; inconclusive = falling polarisation curve, or a change in total fluorescence; inactive = total fluorescence flat and polarisation flat or rising; no compound was filed as active; the % refers to the polarisation; negative = inhibition;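 note: % of control where 0% means no effect; inhibitors lower the polarisation; unlabelled MLL peptide was the positive control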
* hit, by the source's call; ? = inconclusive; . = not tested or not shown; & = joins results of further samples; [ ] = dose if it differs, or a comment.

SMILES | gsp antagonist | TRPML1 agonist | ClpP mod | gsp ag | TRPML1 blocker | Menin MLL FP FL
Cc1ccc(S(=O)(=O)NCC(c2ccco2)N2CCc3ccccc32)cc1 (centres undefined) | -15% | 0.1 | . | -2%[15.4 µM] | 5 | .
O=C(O)c1ccc(/C=N/Nc2ccc(C(F)(F)F)cn2)cc1 | -16% | -0.4 | . | 21%[15.4 µM] | 6 | -0.5
COc1ccc(CCn2c(=N)c(S(=O)(=O)c3ccc(C)cc3)cc3c(=O)n4ccccc4nc32)cc1 | -14% | 0.0 | -3.7% | -12% | 6 | .
O=C(CCc1nc2ccccc2c(=O)[nH]1)NNC(=O)c1ccc(Cl)cc1 | 14% | -0.8 | -1.5% | -15% | -1 | .
Cc1ccc(/C=c2\sc3nc(-c4ccccc4Br)nn3c2=O)o1 | 2% | -0.5 | 1.4% | -35%[inhibitor] | -7 | ?
COc1cccc(NC(=O)Cn2cc(C#N)c3ccccc32)c1 | -12% | -0.6 | -2.9% | 0% | 11 | 0.7
COCCn1c(CN2CCN(c3ccc(OC)cc3)CC2)nc2c1c(=O)n(C)c(=O)n2C | -4% | 0.0 | 0.5% | 22% | 2 | 1.0
S=C(NCc1ccco1)N1CCN(c2nc(-c3ccc(Cl)cc3)cs2)CC1 | -20% | 2.1 | 4.0% | 8%[15.4 µM] | 12 | 1.8
Cc1onc(-c2c(F)cccc2Cl)c1C(=O)NCC1COc2ccccc2O1 (centres undefined) | -4% | -0.6 | -2.7% | 18% | 7 | 5.9
COC(=O)C(Cc1ccc(OC(=O)c2ccccc2Cl)cc1)N1Cc2ccccc2C1=O (centres undefined) | -26% | 7.4 | -11% | -3% | 33 | 3.3
CC(C)Oc1ccc(CNC(=O)C2CCN(c3nc4ccccc4n(C)c3=O)CC2)cc1 | . | -0.5 | ? | . | -5 | .
CCOc1ccccc1NC(=O)CN1C(=O)COc2ccccc21 | 8% | 0.1 | -0.2% | -41%[inhibitor] | 8 | 6.4
O=C(NC1(C(F)(F)F)NC(=O)N(C2CCCCC2)C1=O)c1cccs1 (centres undefined) | 3% | 0.3 | -0.7% | 14% | 3 | -0.6
CCOCCOC(=O)c1cccc(NC(=O)OCC)c1 | 21% | -0.8 | -13% | -9% | 17 | 2.3
CCN(CC)S(=O)(=O)c1ccc(C(=O)NCc2n[nH]c(=S)n2-c2ccc(Cl)c(Cl)c2)cc1 | -13% | 0.2 | . | 11%[15.4 µM] | -1 | -0.4
COc1cc(NC(=O)CC2C(=O)N(c3cccc(C)c3)C(=O)N2Cc2ccc(F)cc2)cc(OC)c1 (centres undefined) | . | 1.8 | 1.0% | . | 16 | .
CCN1CCN(CC(=O)Nc2ccc(C)c(Br)c2)CC1 | 18% | -0.6 | -1.9% | 6% | -1 | -15
Cn1ccnc1SCC(=O)Nc1ccc2nc(SCC(=O)NC3CC3)sc2c1 | -2% | -0.1 | -1.7% | -12% | -5 | -1.8
Cc1nc(N/N=C/c2cccnc2)cc(N2CCOCC2)n1 | . | -0.9 | 1.5% | ? | -16 | .
O=C(NCc1ccc(Cl)cc1)C(=O)NCC1OCCN1S(=O)(=O)c1cc(F)ccc1F (centres undefined) | 3% | 0.8 | -0.5% | 8% | -4 | .
CCOC(=O)c1nn(-c2ccc3c(c2)OCO3)cc1O | 1% | 0.8 | ? | 22% | -15 | 2.8
COc1ccc2c(c1)C(c1ccc(N3CCOCC3)cc1)=NNC(c1cccnc1)=N2 | -6% | -0.6 | 1.6% | -11% | -2 | -5.5
COc1ccc(-c2nn(C)c(=O)c3ccccc23)cc1CNC(=O)C1CCCCC1 | -20% | 5.6 | . | -9% | 14 | 7.9
CCOCCn1c(-c2ccc(OC)cc2)nc2ccccc21 | -11% | 1.3 | 5.7% | -118%[inhibitor] | ? | 0.1
O=C(Oc1ccccc1F)C1CCN(C(=O)c2ccc(F)cc2)CC1 | -2% | -0.5 | 0.9% | 23% | -6 | .

In another format: entries from further up.
molecule	gsp antagonist	TRPML1 agonist	ClpP mod	gsp ag	TRPML1 blocker	Menin MLL FP FL
COc1cc(NC(=O)CC2C(=O)N(c3cccc(C)c3)C(=O)N2Cc2ccc(F)cc2)cc(OC)c1 (centres undefined)	.	1.8	1.0%	.	16	.
CCN1CCN(CC(=O)Nc2ccc(C)c(Br)c2)CC1	18%	-0.6	-1.9%	6%	-1	-15
Cn1ccnc1SCC(=O)Nc1ccc2nc(SCC(=O)NC3CC3)sc2c1	-2%	-0.1	-1.7%	-12%	-5	-1.8
Cc1nc(N/N=C/c2cccnc2)cc(N2CCOCC2)n1	.	-0.9	1.5%	?	-16	.
O=C(NCc1ccc(Cl)cc1)C(=O)NCC1OCCN1S(=O)(=O)c1cc(F)ccc1F (centres undefined)	3%	0.8	-0.5%	8%	-4	.
CCOC(=O)c1nn(-c2ccc3c(c2)OCO3)cc1O	1%	0.8	?	22%	-15	2.8
COc1ccc2c(c1)C(c1ccc(N3CCOCC3)cc1)=NNC(c1cccnc1)=N2	-6%	-0.6	1.6%	-11%	-2	-5.5

Following part:
SMILES | gsp antagonist | TRPML1 agonist | ClpP mod | gsp ag | TRPML1 blocker | Menin MLL FP FL
CC(C)(C)C(=O)Nc1ccnn1C1CCN(C(=O)c2cccc(Cl)c2)CC1 | 10% | 0.9 | -1.7% | -3% | -10 | .
COc1ccc(-n2nc(C(=O)Nc3cc(C)c(Cl)cc3OC)c3c4ccccc4n(C)c3c2=O)cc1 | . | 1.7 | -1.8% | . | 12 | .
COc1cc(/C(C)=N/NC(=S)NC(C)C)cc(OC)c1OC | -5% | 5.0 | -20% | -9% | 35 | 0.5
COc1ccc(C(=O)NCCS(=O)(=O)NCc2cccs2)cc1 | 7% | -0.9 | . | -3%[15.4 µM] | 7 | .
COc1ccc(OC)c(CNC(=O)Cc2ccc(NC(=O)N3CCCCc4ccccc43)cc2)c1 | . | -0.2 | -0.3% | . | -3 | .
CN(CCNC(=O)c1ccc(N2CCCC2=O)cc1)CCc1ccccc1 | 0% | -0.1 | -8.1% | 0% | 38 | 1.0
COc1ccc(OC)c(NC(=O)CC2SC(=N)N(c3ccccc3)C2=O)c1 (centres undefined) | -5% | -1.1 | . | 3%[15.4 µM] | -11 | -3.3
Cc1ccc(NC(=O)CCNS(=O)(=O)c2cccc3nsnc23)cc1 | 4% | -0.1&0.4 | 0.2%&-1.5% | -10% | 8&-13 | 1.1
Cc1nn(C)c2c1NC(=O)CS2 | . | 0.2 | 3.1% | -17% | -5 | .
COc1ccc(C(=O)C2CCCCC2=O)cc1 (centres undefined) | -2% | -0.1 | -1.6% | 11% | 1 | -0.2
Cc1nn(Cc2ccc(Cl)cc2)c(C)c1NC(=O)C(c1ccccc1)c1ccccc1 | -19% | 0.5 | 1.7% | 5% | 5 | 3.3
O=C(CN1C(=O)CSc2ccc(S(=O)(=O)N3CCCCCC3)cc21)NCCc1ccccc1 | -23% | -0.6 | . | -34%[inhibitor] | 1 | .
COc1cccc(OCc2cc(C(=O)N3CCN(c4ccccc4O)CC3)no2)c1 | -8% | 0.3 | -3.4% | -12% | 4 | .
COc1ccc(NC(=O)c2ccc3c(SCC(=O)O)c4c(nc3c2)CCCC4)c(OC)c1 | -18% | 0.5&0.3 | -1.2%&0.8% | 14% | -11&10 | 14
CCOC(=O)C(C(=O)OCC)C(=O)c1cc(OC)c(OC)c(OC)c1 | 10% | 1.9 | 1.4% | 14% | -29 | 5.1
NC(=O)c1ccc(NC(=O)COC(=O)CCCc2c[nH]c3ccccc23)cc1 | -10% | 0.3 | -3.6% | ? | -13 | 0.2
Oc1cccc(/C=N/Nc2ncnc3c2ncn3Cc2ccccc2)c1 | 3% | 0.1 | -4.9% | ? | 20 | 0.2
CCOC(=O)C1C(c2ccc(O)c(OC)c2)NC(=S)NC1(O)C(F)(F)F (centres undefined) | 7% | 0.3 | 1.7% | ? | 2 | 4.4
COc1ccc(CNC(=O)c2cnc3sc(N4CCCCCC4)nn3c2=O)cc1 | . | -0.5 | -4.0% | . | 16 | .
Cc1onc(-c2ccccc2)c1C(O)c1ccc(F)cc1 (centres undefined) | 0% | 3.6 | -0.9% | -8% | 7 | -9.3
O=c1[nH]cnc2c1ncn2[C@@H]1O[C@H](CO)[C@@H](O)[C@H]1O | 2% | 0.5 | 0.8% | . | 10 | -2.0
O=C(Nc1cccc(Cl)c1)Nc1ccccc1OCc1cc(=O)n2ccccc2n1 | . | 0.1 | 14% | . | 6 | .
COc1ccc(-c2nc(CN(Cc3cnn(C)c3)C(C)C)c(C)o2)c(OC)c1 | 5% | 1.2 | -27% | ? | 0 | -3.1
CC(=O)Nc1ccc2oc(-c3cc(F)c(F)cc3Cl)nc2c1 | 0% | 0.8 | 18µM* | 20% | -7 | 2.6
COc1ccc(CNC(=O)c2cc3c(=O)n(C)c4ccccc4c3n2C)cc1 | . | -1.1 | -9.7% | . | -12 | .
Remaining list, next part.
SMILES | gsp antagonist | TRPML1 agonist | ClpP mod | gsp ag | TRPML1 blocker | Menin MLL FP FL
CCOC(=O)CCn1c(=O)c2c(nc(Br)n2Cc2ccccc2)n(C)c1=O | -2% | -0.6 | -7.5% | -23% | -19 | 1.4
C/C(CC(=O)NC1CCCCC1)=N\NC(=O)Cc1ccc(-c2ccccc2)cc1 | . | -0.9 | . | 7%[15.4 µM] | 16 | -3.5
CCN(CC)S(=O)(=O)c1ccc(N2CCN(C)CC2)c(NC(=O)CN2C(=O)NC3(CCCCC3)C2=O)c1 | -9% | -0.3 | -0.2% | 9% | -3 | .
O=C(Cc1cnc2ncnn2c1)N1CCc2c([nH]c3ccccc23)C1c1ccccn1 (centres undefined) | 4% | 0.2 | . | -13% | 0 | -4.9
O=C(CCC(=O)N1Cc2ccccc2Oc2ncccc21)Nc1ccc(Cl)cc1 | . | -0.7 | 0.6% | . | -17 | .
CS(=O)(=O)Nc1ccc(S(=O)(=O)NCCc2ccccc2)cc1 | 0% | 1.4 | -0.6% | -34%[inhibitor] | -2 | 3.0
Cc1[nH]c2ccccc2c1/C=C(\C#N)C(=O)NCc1ccccc1 | -16% | 1.3 | 14% | -13% | -8 | ?
Cc1c(Cl)cccc1NC(=S)NC1CC1 | 6% | -0.7 | 1.3% | -14% | 10 | 0.2
c1ccc(-c2nc(N3CCOCC3)cc(N3CCOCC3)n2)cc1 | -1% | -0.6 | 0.3% | -48%[inhibitor] | -6 | 1.6
Cc1c(Cc2ccccc2)[n+](=O)c2ccccc2n1[O-] | . | -0.7 | -3.2% | 4% | 5 | .

Screening results as filed in PubChem.
